RecA intein inh: Mtb RecA intein splicing inhibitors, primary screen, biochemical, fluorescence, HTS; cell-free RecA intein splicing; inhibition, %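 (about 9 µM by stock and volumes)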; hit rate 0.75% among 290,000; in the data active means inhibition above about 30%; inconclusive means no clear call, values can overlap the other calls;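 further: 0% = vehicle wells and 100% = reference inhibitor control wells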
Target sequence (P9WHJ3 whole entry, looked up): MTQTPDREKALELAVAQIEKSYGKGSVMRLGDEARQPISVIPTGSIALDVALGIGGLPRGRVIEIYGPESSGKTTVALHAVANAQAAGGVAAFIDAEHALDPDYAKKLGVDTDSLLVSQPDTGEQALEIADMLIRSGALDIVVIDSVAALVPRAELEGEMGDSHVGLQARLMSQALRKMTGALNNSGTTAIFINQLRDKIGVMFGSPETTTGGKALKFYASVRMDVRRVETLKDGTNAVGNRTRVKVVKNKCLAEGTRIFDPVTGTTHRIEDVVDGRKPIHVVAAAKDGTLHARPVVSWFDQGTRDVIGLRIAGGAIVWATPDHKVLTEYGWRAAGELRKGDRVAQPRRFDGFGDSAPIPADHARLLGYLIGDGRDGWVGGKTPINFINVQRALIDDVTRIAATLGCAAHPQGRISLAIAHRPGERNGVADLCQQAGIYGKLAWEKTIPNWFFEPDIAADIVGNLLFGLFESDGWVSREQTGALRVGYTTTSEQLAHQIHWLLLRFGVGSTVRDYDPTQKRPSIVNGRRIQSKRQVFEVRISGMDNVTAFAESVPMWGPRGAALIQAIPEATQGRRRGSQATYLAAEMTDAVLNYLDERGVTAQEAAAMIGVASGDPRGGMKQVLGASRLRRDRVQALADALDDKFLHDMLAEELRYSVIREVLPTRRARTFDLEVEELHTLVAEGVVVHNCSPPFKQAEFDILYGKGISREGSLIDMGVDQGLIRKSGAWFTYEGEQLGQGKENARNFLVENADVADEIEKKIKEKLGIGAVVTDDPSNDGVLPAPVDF
Arbovirus anti: antivirals against arbovirus infection, primary screen, cell-based, full library, 10K replicate subset; arbovirus infection cell-based antiviral screen; inhibition, % at 10 µM; hit rate 0.37% among 200,000; AID 1251, 2008;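 active means inhibition from about 30%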;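 further: bluetongue infection of BSR cells; cell survival read as ATP light after 72 h; 0% = infected wells without compound and 100% = uninfected wells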
Mtb betalactam: beta-lactam sensitization of Mtb H37Rv, H37Rv. M. tuberculosis H37Rv growth with meropenem, percent inhibition; hits of this screen are not shown here. inhibition, % at 25 µM. hit rate 0.27% among 330,000;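 active means about 74% or more and at least 40 points above the plate without the antibiotic, then above 30% in a dose series; inconclusive means first-round hits that could not be retested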;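 further: growth measured after seven days incubation then overnight dye step; 0% = bacteria only wells and 100% = bacteria with antibiotic; twin plates without the antibiotic show which effects depend on it; some results filed as inactive read as strong as hits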
Mtb growth: M. tuberculosis H37Rv growth inhibitors, H37Rv strain (AID 1626) | M. tuberculosis H37Rv growth inhibition; higher % means a stronger effect | hit rate 0.95% among 220,000 | inhibition, % at 10 µM; hits with a dose series show IC50 in µM;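 active means confirmed in a dose series; inconclusive means inhibition above 80% but not taken into the dose series; inactive means below 80% or under 30% at every dose of the series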;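 further: bacteria incubated seven days before Alamar blue readout; 0% = bacteria only wells and 100% = bacteria with antibiotic wells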
YopH inh: YopH tyrosine phosphatase inhibitors, primary screen, biochemical, fluorescence Ex485/Em525 | YopH tyrosine phosphatase [Yersinia enterocolitica] | inhibition, %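 (about 10 µM by stock and volumes)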 | hit rate 0.16% among 140,000 | AID 898, 2007;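 active means inhibition of 50% or more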;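 further: controls were vehicle for no effect and minimum signal wells for full effect; inactives centre near -20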
Arbovirus anti repeat: further read-out of Arbovirus anti, marked with its call; inhibition, %; measured here: 10K subset replicate screen; many hits read low in the repeat;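 first of two repeat runs on a subset; 0% = infected and 100% = uninfected wells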
* marks the source's active call; other numbers are inactive results; ? = inconclusive; nt = no result given. Not all compounds are listed, so the mix of outcomes need not match the whole.

SMILES	RecA intein inh	Arbovirus anti	Mtb betalactam	Mtb growth	YopH inh	others
CC(C)(C)NC(=O)COC(=O)c1ccc(S(=O)(=O)N2CCCC2)cc1	0.1	-7	2	-2%	nt
Cc1nn(-c2nc3ccccc3[nH]2)c(=O)c2ccccc12	nt	-31	2	2%	nt
CC(C)OC(=O)CSc1nnc(-c2ccccc2)n1N	2.0	4	7	1%	2
CC(C)c1nnc(NC(=O)Cn2nc(-c3ccc4c(c3)OCCO4)ccc2=O)s1	1.8	1	-6	-4%	-33
CC(C)[C@H](NS(=O)(=O)c1ccc2c(c1)OCCO2)C(=O)OCC(=O)Nc1ccccc1Cl	0.7	6	4	30%	-22
CN1CCN(S(=O)(=O)c2cccc(C(=O)N(C)CC(=O)Nc3ccc(F)c(F)c3F)c2)CC1	2.7	nt	-3	nt	nt
O=C(O)CCN1CCc2ccccc21	3.5	12	2	0%	-42
O=C(Nc1nnc(S(=O)(=O)N2CCCCCC2)s1)c1ccccc1Cl	1.0	nt	7	nt	nt
CCCCc1ncc(CN2CCC(n3nccc3NC(=O)c3ccccc3OC)CC2)[nH]1	-0.2	nt	-4	nt	nt
Cc1ccc(C)c(NC(=O)c2ccc(S(=O)(=O)C(F)F)cc2)c1	-9.4	-10	-4	-7%	0
Cc1cc(C)c(N(C(=O)c2csnn2)C(C(=O)NC(C)(C)C)c2ccncc2)c(C)c1 (centres undefined)	-1.7	2	2	-21%	nt
COC(=O)c1ccccc1NC(=O)Cn1nnc(-c2ccc3c(c2)OCO3)n1	-1.9	nt	3	nt	nt
Cc1ccc(-c2nnn(CC(=O)NCCc3ccc4c(c3)OCO4)n2)cc1	-0.9	-1	-4	9%	nt
COC(=O)C1=C(C)N(c2cccc3ccccc23)C(=O)C1	6.1	3	1	4%	-20
COc1ccc(NC(=O)C(C)NS(=O)(=O)c2ccccc2)cc1Cl (centres undefined)	-1.9	-6	-2	-3%	-17
O=S(=O)(Nc1ccc2c(c1)nc1n2CCOC1)c1ccc(Cl)cc1	0.8	7	3	1%	-33
Cc1nnc(SCC(=O)NCc2ccc3c(c2)OCO3)n1C	3.3	1	-9	-3%	nt
O=C(/C=C/c1ccccc1)OCC(=O)N1CCN(c2ccccc2)CC1	-3.3	nt	5	nt	nt
N#CCCN(C(=O)COC(=O)Cc1ccc(Br)cc1)c1ccccc1	nt	4	-1	2%	nt
COc1cc(NC(=O)Cc2ccc([N+](=O)[O-])cc2)c(C(=O)O)cc1OC	-3.5	4	9	7%	-11
CCc1nc2ccccc2n1CCc1ccccc1	0.9	1	-4	6%	nt
CCOC(=O)c1c(CN2CCCCC2C)oc2ccc(OC)cc12 (centres undefined)	-2.3	6	?	-9%	-27
Cc1cccc(NCC(=O)N/N=C\c2ccccn2)c1	-3.6	3	4	-5%	nt
COc1cccc(NCCC(=O)c2cccc([N+](=O)[O-])c2)c1	-0.1	-10	-7	6%	nt
Cc1nnc(NC(=O)CCS(=O)(=O)c2ccccc2)s1	1.7	nt	-2	nt	nt

Quoted at random: 2 entries already listed, in no set order.
SMILES	RecA intein inh	Arbovirus anti	Mtb betalactam	Mtb growth	YopH inh	others
O=C(O)CCN1CCc2ccccc21	3.5	12	2	0%	-42
O=C(Nc1nnc(S(=O)(=O)N2CCCCCC2)s1)c1ccccc1Cl	1.0	nt	7	nt	nt

Back to the main list; the 2 compounds before the break are reprinted first.
SMILES	RecA intein inh	Arbovirus anti	Mtb betalactam	Mtb growth	YopH inh	others
COc1cccc(NCCC(=O)c2cccc([N+](=O)[O-])c2)c1	-0.1	-10	-7	6%	nt
Cc1nnc(NC(=O)CCS(=O)(=O)c2ccccc2)s1	1.7	nt	-2	nt	nt
Cc1ccc(N(CCC#N)C(=O)CN2C(=O)NC(Cc3ccccc3)C2=O)cc1 (centres undefined)	-0.8	12	-5	2%	nt
CCc1c(C)sc(NC(=O)OC)c1C(=O)N1CCCCC1	-9.1	0	2	nt	-10
CC(C)CNC(=O)c1ccccc1SCC(=O)NC12CC3CC(CC(C3)C1)C2	3.0	6	-3	2%	-20
Cc1ccc(NC(=S)NC(=O)C2CC2)cc1Cl	4.0	nt	39	nt	nt
CC#CCN1c2ccccc2[C@]23C[C@@H](C(=O)OC)N(C(=O)c4ccc(Br)cc4)C2=NC(C(=O)OC)=C(C(=O)OC)[C@H]13	0.7	nt	-10	-13%	nt
Cc1ccc(C(=O)NNC(=S)NC(=O)c2ccc(Cl)cc2)cc1	1.8	-23	97	?	-35
CCOC(=O)/C(N=Nc1ccc(C(=O)O)cc1[N+](=O)[O-])=C(\C)O	-0.5	4	0	-4%	nt
CCCCS(=O)(=O)N1CCC(C(=O)NCC2CCCO2)CC1 (centres undefined)	-1.5	nt	8	nt	nt
N#C/C(=C\c1ccc(N2CCOCC2)o1)C(=O)NC1CCCCC1	-20	nt	97	51%	nt
C=CCn1c(=O)c2c3c(sc2n2c(Nc4ccc(OC)cc4)nnc12)CCCC3	nt	3	7	7%	-15
Fc1ccc(NC(=S)Nc2cccc3ccccc23)cc1F	4.9	nt	1	nt	nt
Cc1ccnc(N2C(=O)OC(C)(C)C2(C)O)c1 (centres undefined)	-2.7	-1	-16	2%	1
O=C(CCSCc1cccc(F)c1)NCc1ccc(F)cc1	0.6	nt	7	nt	nt
O=[N+]([O-])c1ccccc1/C=N/n1c(COc2ccccc2)n[nH]c1=S	-3.1	13	1	nt	-13
CCOCC(=O)Nc1ccc(-c2cn3cccnc3n2)cc1	-2.2	8	-6	-7%	-26
O=C(CCn1c(=O)sc2ccccc21)NCc1ccco1	2.4	4	-1	11%	2
CCOc1ccc(/C=N/NS(=O)(=O)c2ccc(C)cc2)cc1OC	-1.2	nt	-4	nt	nt
Cc1ccc(S(=O)(=O)N(C)C)cc1NC(=O)C1CCCCC1	0.8	nt	0	-8%	nt
CS(=O)(=O)N(CCc1ccccc1)CC(N)=O	-1.5	7	-6	2%	-24
COc1ccccc1C1NC(=O)NC(C)=C1C(=O)OC1CCCCC1 (centres undefined)	-6.0	-3	15	2%	-23	Arbovirus anti repeat=-5
COc1ccc(CN2C(=O)CN=C2Nc2cc(C)ccc2C)cc1	0.9	-10	1	-5%	5
CC(=O)Nc1ccc(C(=O)OC2CCOC2=O)cc1 (centres undefined)	-1.3	13	-9	-1%	-25
CCS(=O)(=O)N1CCN(c2ccc([N+](=O)[O-])c(NCc3cccnc3)c2)CC1	2.1	8	1	-3%	nt
CCCCOC(=O)Cn1c(=O)c2c(nc3n2CCCCN3c2ccc(C)cc2)n(C)c1=O	1.9	-39	-1	8%	-5
COc1ccc(N(CC(=O)NCc2cccs2)S(=O)(=O)c2cccnc2)cc1	0.2	0	-1	-1%	-23	Arbovirus anti repeat=-3
SMILES	RecA intein inh	Arbovirus anti	Mtb betalactam	Mtb growth	YopH inh	others
COc1ccc(S(=O)(=O)Nc2ccc(C(N)=O)cc2)cc1C(=O)N1CCCCCC1	0.6	nt	0	nt	nt
COc1ccc(-n2c(Cc3ccccc3)nnc2SCC(=O)N2CCCc3ccccc32)cc1	7.1	1	61	6%	-14
CSc1nnc(C)c(=O)n1COC(=O)COc1ccccc1	1.9	11	-3	-3%	-16
CCN(CC)C(=O)N1CCN(C(=O)c2ccc(C)cn2)CC1	1.2	5	-7	-7%	-22
O=C(N/N=C/c1cc(Br)ccc1O)Nc1ccccc1	-9.7	7	14	13%	-20
CCOc1ccc(Br)cc1C1C(C(=O)OC)=C(N)Oc2cc(N(C)C)ccc21 (centres undefined)	17	-11	-3	-13%	-25
Cc1ccc(S(=O)(=O)NNC(=O)C(O)(c2ccccc2)c2ccccc2)cc1	-3.5	4	-2	-8%	-1
CC1Oc2ccccc2N(CC(=O)Nc2ccc3c(c2)OCCO3)C1=O (centres undefined)	-1.7	4	-6	3%	-48
COc1ccc(OC)c(NC(=O)c2ccc(S(=O)(=O)N3CCN(C)CC3)cc2)c1	-0.8	0	-4	-5%	-43
O=C(CCS(=O)(=O)c1ccc2c(c1)NC(=O)CO2)NCCc1ccccc1	4.8	nt	5	nt	nt
COc1cccc(-n2c(=O)c3sccc3n(CC(=O)NC3CCCCC3)c2=O)c1	2.9	nt	1	nt	nt
CSc1ccccc1OCc1cc(C(=O)N(C)Cc2c(C)n[nH]c2C)no1	-1.7	nt	-5	nt	nt
Cc1ccc(C(=O)CCC(=O)Nc2ccc(Cl)c(S(=O)(=O)Nc3cccc(Cl)c3)c2)cc1	-0.6	-7	10	-2%	2
Cc1sc2ncn(CC(=O)NCCN3CCOCC3)c(=O)c2c1S(=O)(=O)N1CCC(C)CC1	-1.3	0	-2	2%	-30
O=C(NCc1ccc(F)cc1)C(=O)NCC1OCCN1S(=O)(=O)c1ccc2c(c1)OCCO2 (centres undefined)	-2.2	nt	7	-3%	nt
O=C(COc1c(Cl)cc(Cl)cc1Cl)c1ccc(Cl)cc1	0.2	1	-1	4%	-20
N#C/C(=C/c1cccnc1)c1ccccc1	-4.9	nt	-2	nt	nt
Cc1c(OCC(=O)OC(C)C)ccc2c3c(c(=O)oc12)CCC3	-2.1	1	29	26%	-1
Cc1ccc(C(=O)N/N=C\c2ccc(OC(=O)c3cccs3)cc2)cn1	-0.3	-5	0	55%	-12
CC(=O)c1cccc(N(C(=O)CNC(=O)c2ccco2)C(C(=O)NCc2ccco2)c2ccccc2)c1 (centres undefined)	-1.9	-1	9	0%	nt
CCOC(=O)c1ccccc1NC(=O)c1ccc(N(C)S(C)(=O)=O)cc1	-0.1	5	8	3%	-4
COC(=O)c1cc(NC(=O)Cc2ccc(OC)c(OC)c2)cc(C(=O)OC)c1	3.1	0	2	9%	-54
C/C(CC(=O)Nc1ccc(C)cc1C)=N\NC(=O)C(C)C	nt	2	4	2%	nt
COc1ccccc1CNC(=O)COC(=O)COc1ccccc1Cc1ccccc1	0.3	nt	2	nt	nt
CC1CCc2c(C(=O)Nc3nccs3)csc2C1 (centres undefined)	1.5	13	100	?	-13
Cn1cc([N+](=O)[O-])c(C(=O)NCc2cc3cc(Cl)ccc3[nH]2)n1	-8.2	35*	1	18%	-12

Of the compounds above, these have an aryl methoxy group:
SMILES	RecA intein inh	Arbovirus anti	Mtb betalactam	Mtb growth	YopH inh	others
CCCCc1ncc(CN2CCC(n3nccc3NC(=O)c3ccccc3OC)CC2)[nH]1	-0.2	nt	-4	nt	nt
COc1ccc(NC(=O)C(C)NS(=O)(=O)c2ccccc2)cc1Cl (centres undefined)	-1.9	-6	-2	-3%	-17
COc1cc(NC(=O)Cc2ccc([N+](=O)[O-])cc2)c(C(=O)O)cc1OC	-3.5	4	9	7%	-11
CCOC(=O)c1c(CN2CCCCC2C)oc2ccc(OC)cc12 (centres undefined)	-2.3	6	?	-9%	-27
COc1cccc(NCCC(=O)c2cccc([N+](=O)[O-])c2)c1	-0.1	-10	-7	6%	nt
C=CCn1c(=O)c2c3c(sc2n2c(Nc4ccc(OC)cc4)nnc12)CCCC3	nt	3	7	7%	-15
CCOc1ccc(/C=N/NS(=O)(=O)c2ccc(C)cc2)cc1OC	-1.2	nt	-4	nt	nt
COc1ccccc1C1NC(=O)NC(C)=C1C(=O)OC1CCCCC1 (centres undefined)	-6.0	-3	15	2%	-23	Arbovirus anti repeat=-5
COc1ccc(CN2C(=O)CN=C2Nc2cc(C)ccc2C)cc1	0.9	-10	1	-5%	5
COc1ccc(N(CC(=O)NCc2cccs2)S(=O)(=O)c2cccnc2)cc1	0.2	0	-1	-1%	-23	Arbovirus anti repeat=-3
COc1ccc(S(=O)(=O)Nc2ccc(C(N)=O)cc2)cc1C(=O)N1CCCCCC1	0.6	nt	0	nt	nt
COc1ccc(-n2c(Cc3ccccc3)nnc2SCC(=O)N2CCCc3ccccc32)cc1	7.1	1	61	6%	-14
COc1ccc(OC)c(NC(=O)c2ccc(S(=O)(=O)N3CCN(C)CC3)cc2)c1	-0.8	0	-4	-5%	-43
COc1cccc(-n2c(=O)c3sccc3n(CC(=O)NC3CCCCC3)c2=O)c1	2.9	nt	1	nt	nt
COC(=O)c1cc(NC(=O)Cc2ccc(OC)c(OC)c2)cc(C(=O)OC)c1	3.1	0	2	9%	-54
COc1ccccc1CNC(=O)COC(=O)COc1ccccc1Cc1ccccc1	0.3	nt	2	nt	nt

Screening results from PubChem.
